Assay outcomes deposited in PubChem by Broad Institute.
Beta cell apopt – inhibitors of cytokine-induced beta cell apoptosis, primary screen, luminescence; INS-1E cytokine-induced death, ATP luminescence, 48 h; percent of positive-control rescue, neutral wells zero; protection from apoptosis, % (no concentration beside the values); actives 0.8% (n = 300,000); AID 435005, 2010;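 active = all replicates at 75% or more, or half of them and the mean; inconclusive = half reach 75% but not the mean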;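 also: 0% = cytokine-treated negative control wells and 100% = positive control rescue; higher means more ATP so stronger rescue from cytokine killing; wells of about 40 µL received 100 nL stock; the first replicate is given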
RanGTP-Impb inh – inhibitors of RanGTP-importin-beta interaction, primary screen, biochemical, FRET, CFP-Ran, YFP-importin-beta, homogeneous. cell-free CFP-Ran/YFP-importin-beta FRET ratio. inhibition, % (no concentration beside the values). actives 1.1% (n = 300,000);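 active = most replicates above 15%; inconclusive = exactly half above 15%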;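 also: 0% = DMSO wells and 100% = Ran loaded with GDP instead of GTP; wells of about 40 µL received 100 nL stock; the first replicate is given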
FGF22 binding – binders of human FGF22 protein, primary screen, FGF22 synaptogenesis inhibitor project, biophysical, thermal shift, single point. Fibroblast growth factor 22 (Homo sapiens), Q9HCT0. recombinant FGF22 thermal shift, SYPRO orange fluorescence; percent of sucrose octasulfate shift, DMSO zero. calls only at 9.99 µM. actives 1.5% (n = 340,000);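 active = melting point raised past a set limit in the mean and every replicate; inconclusive = no clear call; three in four hits are not shown here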
Target sequence (Q9HCT0 whole entry, looked up): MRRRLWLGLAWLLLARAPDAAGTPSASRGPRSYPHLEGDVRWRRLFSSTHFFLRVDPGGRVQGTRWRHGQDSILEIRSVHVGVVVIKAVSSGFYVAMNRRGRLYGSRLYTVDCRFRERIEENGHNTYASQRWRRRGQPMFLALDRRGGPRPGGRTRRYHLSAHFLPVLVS
Calb FLC – C. albicans growth inhibition with fluconazole, primary screen, CaCi-2 strain, Alamar Blue fluorescence; C. albicans CaCi-2 (fluconazole-resistant clinical isolate) + fluconazole, 48 h; growth inhibition, % (concentration not given with the values); actives 0.57% (n = 300,000); AID 1979, 2009;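 active = most replicates above 75%; inconclusive = exactly half above 75%; inactive = most below 75%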;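 also: all wells also contain fluconazole at 8 µg/ml as a sub-toxic cotreatment; 0% = median of DMSO wells and 100% = median of geldanamycin control wells; wells of about 8 µL received 7.5 nL stock; the first replicate is given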
ALR H2O2 inh – inhibitors of human ALR sulfhydryl oxidase, primary screen, biochemical, H2O2 detection, HRP-luminol luminescence, single point | inhibition, % (no concentration beside the values) | actives 3.8% (n = 290,000) | purified ALR, DTT oxidation | FAD-linked sulfhydryl oxidase ALR (Homo sapiens), P55789 | AID 485317, 2010;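 active = mean and each replicate at 75% or more; inconclusive = only one of the two met; inactive = neither met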;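 also: stock transfer was 7.5 nL into about 7.5 µL; 0% = neutral wells and 100% = wells with inactivated enzyme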
Target sequence (P55789 whole entry, looked up): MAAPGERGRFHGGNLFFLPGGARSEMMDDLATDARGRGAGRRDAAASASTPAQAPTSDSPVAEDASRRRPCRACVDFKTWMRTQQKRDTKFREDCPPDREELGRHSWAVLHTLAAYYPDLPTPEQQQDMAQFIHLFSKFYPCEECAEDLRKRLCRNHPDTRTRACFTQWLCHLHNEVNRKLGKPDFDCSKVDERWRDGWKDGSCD
MLL AF4-AF9 inh – inhibitors of AF4 peptide binding to AF9, primary screen, biochemical, AlphaScreen, biotin-AF4 peptide, FLAG-AF9, single point. Protein AF-9 (Homo sapiens), P42568. inhibition, % at 10 µM. actives 0.47% (n = 350,000). AID 651704, 2012;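 active = every replicate reaching a set inhibition limit, whatever the replicate mean, cut at about 25% in these data; inconclusive = mean inhibition reaches that limit but some replicates miss it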;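 also: 0% = plate neutral control median and 100% = total signal loss; the record names both 10 and 1 µM as test concentration; the first replicate is given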
Target sequence (P42568 whole entry, looked up): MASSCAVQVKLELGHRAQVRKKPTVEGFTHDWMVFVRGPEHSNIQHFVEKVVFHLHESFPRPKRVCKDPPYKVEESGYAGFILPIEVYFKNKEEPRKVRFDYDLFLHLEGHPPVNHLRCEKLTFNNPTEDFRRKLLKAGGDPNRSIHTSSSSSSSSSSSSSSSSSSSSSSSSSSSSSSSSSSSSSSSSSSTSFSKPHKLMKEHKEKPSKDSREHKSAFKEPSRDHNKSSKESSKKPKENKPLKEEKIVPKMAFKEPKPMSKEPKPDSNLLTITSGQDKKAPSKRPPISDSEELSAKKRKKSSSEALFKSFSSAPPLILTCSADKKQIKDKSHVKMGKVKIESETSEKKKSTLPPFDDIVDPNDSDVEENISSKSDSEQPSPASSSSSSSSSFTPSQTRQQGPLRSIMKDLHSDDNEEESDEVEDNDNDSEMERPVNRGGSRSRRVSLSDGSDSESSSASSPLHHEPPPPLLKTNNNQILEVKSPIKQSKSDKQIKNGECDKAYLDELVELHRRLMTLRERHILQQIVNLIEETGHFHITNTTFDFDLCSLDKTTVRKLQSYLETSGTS
T cruzi inh – inhibitors of intracellular T. cruzi growth, primary screen, luminescence, NIH3T3 host cells. actives 1.4% (n = 300,000). AID 1885, 2009. T. cruzi beta-gal in NIH3T3, 90 h. inhibition, % (no concentration beside the values);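 active = mean inhibition across valid replicates above about 55%, limit read from the data; inconclusive = mean below that limit but half or more replicates reach it; inactive = mean below it, under half of replicates reach it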;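 also: signal also drops with host cell toxicity which is not excluded here; 0% = plate median of DMSO wells and 100% = zero luminescence signal; higher percent means less beta-gal luminescence so fewer parasites; stock transfer was 50 nL into about 50 µL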
rRNA inh HTS – reduced GFP signal of wild-type E. coli, primary screen, bacterial rRNA inhibitor project, GFP/RFP fluorescence, OD600, single point. GFP signal change (wild-type ribosome), % (test concentration not listed). AID 720706, 2013. E. coli WT GFP vs humanized-ribosome RFP mutants, 24 h; active compounds read low; DMSO median 0, no signal -100. actives 1.6% (n = 350,000);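 active = significant combined selectivity score with lowered wild-type GFP, culture density cut under 30%, mutant RFP and density less affected; inactive = any of these conditions unmet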; also: one replicate is shown; some compounds called inactive have numbers as strong as hits
rRNA inh HTS OD600 – recorded beside rRNA inh HTS, whose call it bears; OD600 change, %; measured here: OD600 growth;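 optical density of the mix in the first replicate; 0 = DMSO median and -100 = no signal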
rRNA inh HTS RFP – recorded beside rRNA inh HTS, whose call it bears; RFP signal change, %; measured here: RFP humanized mutant strains;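 first replicate; 0 = DMSO median and -100 = no signal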
Active calls of the source: *; i = inactive; u = inconclusive; x = not tested or not shown.

SMILES	Beta cell apopt	RanGTP-Impb inh	FGF22 binding	Calb FLC	ALR H2O2 inh	MLL AF4-AF9 inh	T cruzi inh	rRNA inh HTS	rRNA inh HTS OD600	rRNA inh HTS RFP
Cn1nc(C(F)(F)F)c(/C=N/OC(=O)c2ccccc2)c1Cl	-7	-0.3	x	1	-18	x	-22	x	x	x
CCc1c(C)c2ccc(OCC(=O)NCC3CCC(C(=O)O)CC3)cc2oc1=O (centres undefined)	-4	0.5	i	-5	-31	5.5	-15	x	x	x
C/C(=N/N=C1\SCC(=O)N1c1ccccc1)c1ccc(C)cc1	-8	-0.8	i	-1	-3	x	4	13	1	-2.8
Cn1c(=O)n(C)c2cc([N+](=O)[O-])c(N3CCN(C(=O)c4ccccc4Cl)CC3)cc21	12	-2.8	x	48	-14	x	-9	x	x	x
O=C(COC(=O)c1ccc(Cl)c(S(=O)(=O)N2CCc3ccccc3C2)c1)Nc1ncc(Cl)cc1Cl	-9	-4.3	x	11	-30	x	0	x	x	x
CC(=O)Nc1ccc(NC(=O)C(C)n2c3ccccc3c3nc(=O)cc(C)n32)cc1 (centres undefined)	-4	0.0	i	1	-6	-1.5	17	-1	9	2.6
COc1ccc(CN2C(=O)CNC2=S)cc1	x	0.6	i	-33	x	-1.8	5	-5	1	2.1
CC(C)(C)C(=O)COC(=O)c1ccccc1O	-2	1.2	x	6	-2	x	3	x	x	x
O=C(Nc1ncc2c(n1)CC(c1cccc(Cl)c1)CC2=O)c1ccco1 (centres undefined)	0	-2.0	i	16	-3	-0.3	-1	-2	-5	0.4
O=C(c1ccc(Br)o1)N1N=C(c2ccc(Cl)cc2)CC1c1ccco1 (centres undefined)	38	-1.8	x	0	14	1.2	38	23	13	3.2
COc1ccc(C(=O)NCCS(=O)(=O)NCc2cccs2)cc1	3	0.1	i	5	0	-0.2	-1	1	2	-0.6
COCCNC(=O)c1onc(CSc2cc(C)cc(C)c2)c1C(=O)NCCOC	2	1.8	i	-6	26	-0.7	-4	-8	-14	1.2
O=C(O)C#Cc1cccc2ccccc12	3	-0.4	i	2	-20	-7.7	-6	-3	-5	1.6
Cc1ccc(/C=N/n2c(-c3ccncc3)n[nH]c2=S)s1	-5	-2.5	i	-5	2	-1.7	-30	9	3	-0.6
CCOc1ccc2[nH]c(=O)c(CN(Cc3ccco3)C(CC)c3nnnn3Cc3ccccc3)cc2c1 (centres undefined)	-3	-6.9	x	16	-1	x	20	x	x	x
Cn1nnc(NC(=O)C(c2ccccc2)c2ccccc2)n1	1	-1.7	x	-1	-1	x	3	x	x	x
CC(C)(C)Nc1nc(OCC#N)nc(N2CCCCC2)n1	7	4.5	i	-3	4	-3.3	16	-22	-22	1.1
CC(C)(C)NC(=O)NCc1ccco1	x	-2.0	i	-2	6	0.8	-3	2	13	-3.1
COc1cccc(-c2nc(N3CCCCC3C)c3ccccc3n2)c1O (centres undefined)	x	-3.4	x	3	47	x	27	x	x	x
COc1cc(/C=N/NC(=O)c2cc(-c3ccccc3)nc3ccccc23)ccc1O	6	u	i	-2	32	1.4	3	-3	-3	2.5
O=C(c1csc2ccccc12)N1CCN(c2ccccn2)CC1	3	-2.1	x	1	-5	x	-5	x	x	x
COc1cc2nc(N(CCCN(C)C)C(=O)c3ccc(S(=O)(=O)N4CCc5ccccc5C4)cc3)sc2cc1OC	x	-2.5	i	10	-3	1.6	57*	-17	-3	-0.5
COc1ccc(COC(=O)Oc2ccc(CNC(C)=O)cc2OC)c([N+](=O)[O-])c1	-2	-0.1	i	12	x	1.2	0	6	9	2.0
CCCCNC(=O)c1cc2nc3c(c(C(F)(F)F)n2n1)CCc1ccccc1-3	8	-2.3	x	0	-1	x	4	x	x	x
CCOC(=O)C1=C(C)NC(SCC(=O)Nc2nc(C)cs2)=C(C#N)C1c1cccs1 (centres undefined)	16	1.0	x	8	x	x	4	x	x	x

Grouped by structure: those above containing a CF3 group (2)
SMILES	Beta cell apopt	RanGTP-Impb inh	FGF22 binding	Calb FLC	ALR H2O2 inh	MLL AF4-AF9 inh	T cruzi inh	rRNA inh HTS	rRNA inh HTS OD600	rRNA inh HTS RFP
Cn1nc(C(F)(F)F)c(/C=N/OC(=O)c2ccccc2)c1Cl	-7	-0.3	x	1	-18	x	-22	x	x	x
CCCCNC(=O)c1cc2nc3c(c(C(F)(F)F)n2n1)CCc1ccccc1-3	8	-2.3	x	0	-1	x	4	x	x	x

Next section
SMILES	Beta cell apopt	RanGTP-Impb inh	FGF22 binding	Calb FLC	ALR H2O2 inh	MLL AF4-AF9 inh	T cruzi inh	rRNA inh HTS	rRNA inh HTS OD600	rRNA inh HTS RFP
O=C(NCN1C(=O)C2C3C=CC(C3)C2C1=O)Nc1nccs1 (centres undefined)	-1	8.2	x	-6	-14	x	-33	x	x	x
COc1ccc(C(=O)C2CCCN(C(=O)c3cccc(N(C)C)c3)C2)cc1OC (centres undefined)	0	1.3	i	-8	12	6.7	-14	7	-1	-0.2
O=C(NCc1ccccc1Cl)C1CCN(C(=O)c2ccco2)CC1	-2	-0.8	x	7	1	x	-5	x	x	x
COc1ccc(C(=O)NC2CC3CCCC(C2)N3Cc2ccccc2)cc1 (centres undefined)	-3	-4.5	i	-20	-17	-10	10	4	6	0.8
COc1ccc(CSc2nnc(N)s2)cc1F	-12	-2.2	x	7	-5	x	-16	x	x	x
Cc1[nH]c2ccccc2c1C(=O)COC(=O)C1CCC1	x	-0.8	i	-9	1	1.7	-8	-4	3	5.7
N#CC1=C(N)N(c2ccccc2)C(=O)C1	-3	-4.5	x	-6	x	x	4	x	x	x
O=C1CCC(C(=O)N2CCC(O)(c3ccccc3)CC2)CN1CCc1ccccc1 (centres undefined)	-4	-0.9	i	1	-11	-0.4	-17	5	6	0.6
Cc1c(Br)c([N+](=O)[O-])nn1CC(=O)N1CCN(Cc2ccccc2)CC1	2	4.6	i	-1	-3	-21	12	-1	8	-5.4
COc1ccc(CCNC(=O)c2cc(S(=O)(=O)N3CCOCC3)ccc2F)cc1	-6	x	i	x	-2	-1.2	x	-1	-1	3.4
CCN(c1ccccc1)S(=O)(=O)c1cc(NC(=O)C2CC2)ccc1Cl	4	x	i	x	x	-0.6	x	-15	-9	-12
C=CCn1c(O)c(C2=c3ccccc3=NC2=O)sc1=Nc1ccc(O)cc1	0	-3.4	i	16	-12	8.0	48	-8.0*	1.0*	-5.5*
Cc1occc1-c1nnc(SCC(=O)Nc2ccc(F)cc2)n1Cc1ccccc1	-8	0.5	x	3	-9	x	-15	-24	-37	-14
O=c1[nH]cnc(O)c1C(c1ccc(F)cc1)c1c(O)nc[nH]c1=O	-6	-2.5	i	0	-5	-1.9	-12	9	12	-0.2
COc1cccc(C2c3[nH]c4ccccc4c3C[C@H]3C(=O)N(c4ccccc4C(=O)N4CCC[C@H]4C(=O)O)C(=O)N23)c1 (some centres undefined)	-3	3.4	i	-1	98*	-1.7	-1	x	x	x
CC(NC(=O)C(=O)NCCc1c[nH]c2ccccc12)c1ccccc1 (centres undefined)	0	u	i	-5	-2	-1.2	-7	11	-7	0.6
Cc1ccc(Nc2ncnc(-n3cccc3)n2)cc1Cl	5	-0.4	i	-1	-12	1.6	x	x	x	x
CCC(=O)Nc1ccc2nc3c(=O)[nH]c(=S)[nH]c3nc2c1	-10	-13	i	-6	2	-1.1	3	11	9	-1.1
COC(=O)C1=C(C)N(c2ccccc2)C(=S)NC1c1ccccc1C(F)(F)F (centres undefined)	1	3.0	i	22	-1	9.0	6	-26	-22	-2.4
COc1ccc(OC)c(NC(=O)/C=C/c2ccccc2[N+](=O)[O-])c1	4	-3.1	x	-2	5	x	14	x	x	x
COCc1ccccc1Cn1cnc2c1c(=O)n(C)c(=O)n2C	16	2.4	x	-5	-19	x	-9	x	x	x
CCOC(=O)c1ccc(Nc2nc(-c3cccnc3)nc3ccccc23)cc1	28	2.3	x	-29	-1	x	37	x	x	x
CCc1ccc(NC(=O)Cn2c(=O)n(CCCC(=O)NCc3ccco3)c(=O)c3ccccc32)cc1	8	-1.2	x	5	-2	x	-1	x	x	x
CC1(C)Cc2c(cnn2-c2ccc(F)cc2)C(NC(=O)CCN2CCCCC2=O)C1 (centres undefined)	0	-4.1	i	-12	-10	-1.4	-11	8	6	-1.8
CCCn1c(-c2cccc(F)c2)nc2c1c(=O)[nH]c(=O)n2Cc1ccccc1	1	-1.3	i	0	-34	-0.3	6	6	-3	-1.6
Continuation.
SMILES	Beta cell apopt	RanGTP-Impb inh	FGF22 binding	Calb FLC	ALR H2O2 inh	MLL AF4-AF9 inh	T cruzi inh	rRNA inh HTS	rRNA inh HTS OD600	rRNA inh HTS RFP
COc1cc(C(=O)Nc2ccc(C(C)=O)cc2)c(Br)c(OC)c1OC	4	u	x	8	-3	x	-16	x	x	x
CCOC(=O)c1ccc(NCC(O)COc2ccccc2)cc1 (centres undefined)	-5	-3.8	x	-10	2	x	12	x	x	x
O=C(NN1C(=O)c2ccc3c4c(ccc(c24)C1=O)CC3)c1ccc(Br)cc1	-4	-3.5	x	-1	x	x	-8	x	x	x
COc1ccc(OC)c(CNC(=O)CCc2nc(-c3cccs3)no2)c1	-6	3.1	i	-3	x	-1.2	-3	6	-3	-1.4
COc1ccc(C(=O)N2CCN(CC(=O)N3CCOCC3)CC2)cc1	-4	-3.7	i	x	45	-5.2	-18	x	x	x
O=C(NC1CC1)C1CCN(C2CCN(C(=O)c3c(F)cccc3Cl)CC2)CC1	5	3.2	i	5	-1	-2.5	-7	11	13	3.8
COc1ccc(CCNC(=O)c2n[nH]c3ccccc23)cc1	-4	0.5	i	u	-6	-3.3	5	x	x	x
Cc1ccc(S(=O)(=O)N2CCOC2CNC(=O)C(=O)NCCCN2CCOCC2)cc1 (centres undefined)	-5	8.8	i	0	-7	-0.4	1	18	12	7.4
O=C(NCCCN1CCCCC1)c1ccc2c(c1)NC(=O)C(N1CCOCC1)S2 (centres undefined)	-9	-2.1	x	-11	-1	x	-5	x	x	x
COc1ccccc1N(CC(=O)NC1CCCC1)C(=O)c1oc(C(C)(C)C)cc1C	5	9.6	i	-8	-2	4.6	-3	-25	-22	1.2
Cc1sc2ncn(CC(=O)NCC(=O)N(C)C3CCCCC3)c(=O)c2c1C	-5	2.6	x	5	-8	x	-4	x	x	x
O=c1ccn(Cc2ccccc2)c2ccccc12	-12	0.5	i	5	x	0.4	-28	-1	-4	-7.9
NS(=O)(=O)c1ccc(CCNS(=O)(=O)c2ccc(Cl)s2)cc1	-1	x	i	x	x	-1.7	x	-6	0	0.6
Cc1cc(OCC(=O)NCc2ccccn2)cc(C)c1Br	-5	1.2	x	-4	-3	x	5	x	x	x

Only part of the results is shown. The share of hits here may be higher or lower than overall.
